# UUG fidelity = alters start codon recognition fidelity in yeast | activity score, % at 18.7 µM | actives 0.13% (n = 350,000) | AID 602363 | S. cerevisiae UUG-firefly luciferase reporter, luminescence/redox ratio;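 active = replicate mean at a twofold rise or more, about +100% in these data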;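 note: firefly luciferase made from a UUG start codon reports start codon fidelity; reporter light over untreated wells divided by growth signal over untreated wells; some hits fall short of that in this replicate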
# Rce1 inhib = yeast Ras-converting enzyme inhibition | Q03530 | actives 0.27% (n = 290,000) | calls only | AID 2563 | yeast membranes, quenched prenylated peptide cleavage fluorescence;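 active = fall in fluorescence gain of 50% or more versus controls, with final raw signal at or below 3038400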;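 note: plate controls were neutral control wells for no effect and wells lacking membranes for full effect; tested at 10 µM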
# Target sequence (Q03530 whole entry, looked up): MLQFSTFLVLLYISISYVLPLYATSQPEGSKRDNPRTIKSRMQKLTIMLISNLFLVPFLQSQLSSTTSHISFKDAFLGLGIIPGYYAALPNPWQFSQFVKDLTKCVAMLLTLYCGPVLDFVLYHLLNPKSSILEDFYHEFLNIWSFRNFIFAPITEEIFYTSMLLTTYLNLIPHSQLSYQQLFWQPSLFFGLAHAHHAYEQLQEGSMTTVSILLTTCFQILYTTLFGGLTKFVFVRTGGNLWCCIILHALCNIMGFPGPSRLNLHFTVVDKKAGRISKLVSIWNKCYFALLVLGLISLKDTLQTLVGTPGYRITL
# Env fusion inh = HIV envelope-mediated fusion inhibition. actives 1.1% (n = 360,000). AID 651610. HeLa-JRFL Env/CEM21 cell fusion, luciferase. inhibition, % at 12.3 µM;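 active = mean replicate inhibition score of at least 50 and every replicate individually at or above 50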;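 note: 0% = plate neutral controls and 100% = maraviroc near 300 nM; one replicate is shown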
# eIF4H FP inh = inhibitors of RNA binding by human eIF4H; Q15056; eIF4H fluorescence polarization binding assay; inhibition, % at 35 µM; actives 0.94% (n = 290,000); AID 2012;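 active = 50% or more with normal probe brightness, or confirmed in later tests; about a fifth of its hits are not listed in these tables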;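 note: calls also rest on retests at 20 µM and on dose response follow-up; 0% = protein and probe with vehicle and 100% = probe without protein; strong numbers were not always called active; many hits fall short of the cut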
# PABP FP inh = PABP-poly(A) binding inhibition; actives 1% (n = 290,000); PABP-poly(A) RNA binding, fluorescence polarization; inhibition, % at 35 µM; P11940;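 active = 50% or more with normal probe brightness, or confirmed in later tests; about a fifth of its hits are not listed in these tables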;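 note: calls also rest on retests at 20 µM and on dose response follow-up; controls were probe without protein and protein plus probe with vehicle; some compounds called inactive have numbers as strong as hits; many hits fall short of the cut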
# Target sequence (P11940 whole entry, looked up): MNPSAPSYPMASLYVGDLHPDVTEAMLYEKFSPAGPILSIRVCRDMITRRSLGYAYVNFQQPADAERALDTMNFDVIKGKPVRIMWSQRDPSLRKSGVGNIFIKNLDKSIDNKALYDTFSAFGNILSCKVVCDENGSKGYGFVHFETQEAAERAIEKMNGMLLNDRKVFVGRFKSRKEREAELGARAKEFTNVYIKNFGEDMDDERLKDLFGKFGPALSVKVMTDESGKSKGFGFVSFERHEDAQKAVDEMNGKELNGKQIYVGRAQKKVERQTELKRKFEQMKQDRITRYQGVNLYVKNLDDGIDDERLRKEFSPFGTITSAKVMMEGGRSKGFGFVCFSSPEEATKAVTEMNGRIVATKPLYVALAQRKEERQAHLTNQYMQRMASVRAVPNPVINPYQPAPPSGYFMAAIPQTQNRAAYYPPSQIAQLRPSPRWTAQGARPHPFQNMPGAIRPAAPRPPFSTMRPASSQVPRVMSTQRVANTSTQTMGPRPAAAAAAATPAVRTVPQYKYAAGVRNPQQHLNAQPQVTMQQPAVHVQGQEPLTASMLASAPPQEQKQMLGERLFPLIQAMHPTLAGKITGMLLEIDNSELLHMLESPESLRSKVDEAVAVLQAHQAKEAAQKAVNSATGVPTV
# MT1-MMP act inh = blocks activation of human MT1-MMP; P50281; HT1080 RFP-PRO-GFP cells, GFP/RFP ratio fluorescence, overnight; percent of plate control window, DMSO zero; GFP/RFP ratio change, % at 20 µM; actives 0.061% (n = 360,000);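 active = GFP/RFP ratio change of at least 30% with cell ATP level not reduced by more than half and red fluorescence within 50% of control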; note: strong numbers were not always called active
#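 Read-out: GFP/RFP fluorescence ratio; Test system: RFP-PRO-GFP reporter HT1080 cells; Compound dosing: single-point 20 µM compound, 1% DMSO; Times: overnight compound exposure at 37 °C.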
# CSC inhib = blocks cancer stem cells; cancer stem cell-like cells viability, luminescence; inhibition, % at 7.5 µM; actives 1.1% (n = 300,000); AID 2717;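 active = mean at 75% or more and at least half the replicates too; tested in HMLE shEcad cells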;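 note: 0% = median of negative and 100% = median of positive control wells; the first replicate is given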
# MT1-MMP act inh RFP = also measured in MT1-MMP act inh; calls as there; RFP signal change, %; measured here: RFP expression control read;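 0 = vehicle wells; hits needed this value within 50% of zero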
# Active calls of the source: *; i = inactive; nt = no result given; + = active, no number; & = joins results of further samples.
1	COc1cccc(CN(C)C(=O)C(CCSC)NS(=O)(=O)c2ccc3c(c2)OCCO3)c1OC (stereo unspecified)
2	CCN(Cc1cc(=O)[nH]c2ccccc12)C(=O)c1ccc(C)cc1
3	Cn1c(=O)c2c(ncn2CC(=O)N/N=C/C(Br)=C/c2ccccc2)n(C)c1=O
4	CC1CCN(S(=O)(=O)c2ccccc2[N+](=O)[O-])CC1
5	CC1=C(/C=C/C(=O)O)C(C)(C)CCC1
6	CCOc1ccc(S(=O)(=O)N2CCN(Cc3ccc4c(c3)OCO4)CC2)cc1OCC
7	CC1(C)C(=O)OC(c2ccco2)C(C)(C)C1=O (stereo unspecified)
8	O=C(COC(=O)C1CC1)NCCc1ccccc1

Assay by compound	1	2	3	4	5	6	7	8
UUG fidelity	nt	3	-1	-9	-11	9	-17	-5
Rce1 inhib	i	i	i	i	i	i	i	nt
Env fusion inh	9	-5	17	7	-65	3	12	4
eIF4H FP inh	nt	0	-10	14	-9	1	0	nt
PABP FP inh	nt	0	25	0	-5	5	-11	nt
MT1-MMP act inh	2	0	1	2	6	-1	0	-4
MT1-MMP act inh RFP	-3	-1	-2	1	5	2	1	2
CSC inhib	22	-13	nt	-11	-10	11	nt	nt

9	CCC(C(=O)Nc1cc(C)on1)c1ccccc1 (stereo unspecified)
10	COc1ccccc1C(=O)NNC(=O)c1ccc(F)cc1
11	COc1ccc(OC)c(-c2cc(C(=O)Nc3c(C)n(C)n(-c4ccccc4)c3=O)no2)c1
12	Cc1nn2c(nc1=O)SCC(c1ccccc1)=N2
13	CCOC(=O)c1[nH]nc(-c2c(O)cc(C)cc2O)c1-c1csc(C)n1
14	CC[C@@H]1CC=C[C@H]2[C@H]1C(=O)N(Cc1ccccc1)[C@H]2c1ccoc1
15	NC(=O)CC(NC(=O)c1ccccc1)c1ccc(NCc2ccccn2)c([N+](=O)[O-])c1 (stereo unspecified)
16	Cc1ccc(/C=N\NC(=O)c2csnn2)cc1

Assay by compound	9	10	11	12	13	14	15	16
UUG fidelity	-16	nt	15	-25	-8	-13	-7	-46
Rce1 inhib	i	i	i	i	i	i	i	i
Env fusion inh	-125	-18	-20	-130	nt	nt	9	nt
eIF4H FP inh	-6	7	-8	-6	-4	-7	2	9
PABP FP inh	-4	2	-4	-2	4	13	10	3
MT1-MMP act inh	5	-3	nt	-10	2	-11	7	0
MT1-MMP act inh RFP	4	4	nt	0	5	-10	-1	0
CSC inhib	-7	-7	nt	7	-4	86*	-2	17

17	COc1cccc2sc3ccc(C#CC4(O)CCCCC4)cc3c(=O)c12
18	COc1ccc(NS(=O)(=O)c2cccc(C(=O)N/N=C/c3ccccn3)c2)cc1
19	O=C(Nc1cccc(S(=O)(=O)N2CCOCC2)c1)c1ccc(Cl)nc1
20	CC(=O)OC(C[N+]1(C)CCCCCC1)c1ccccc1 (stereo unspecified)
21	O=Cc1c(NCCc2ccc(F)cc2)c2ccccc2[nH]c1=O
22	COc1ccc(N(CC(=O)Nc2cc(Cl)ccc2C)S(=O)(=O)c2c(C)n[nH]c2C)cc1
23	CC(C)(C)c1ccc(C(=O)Nc2ccc(C=C(C#N)C#N)cc2)cc1
24	CCc1ccc(NC(=O)CNC(=O)[C@@H]2Cc3ccccc3CN2C(=O)OC(C)(C)C)cc1

Assay by compound	17	18	19	20	21	22	23	24
UUG fidelity	-43	-13	-11	2	7	-13	-12	19
Rce1 inhib	+	i	nt	i	i	i	i	i
Env fusion inh	-258	-6	nt	23	12	4	-3	-3
eIF4H FP inh	-11	-2	nt	nt	7	-5	-2	-7
PABP FP inh	16	6	nt	nt	8	0	-2	3
MT1-MMP act inh	2	3	11	-2	-8	-8	0	-3
MT1-MMP act inh RFP	-2	6	-14	-1	-4	-13	-2	-2
CSC inhib	-25	1	-2	-1	-9	38	57	-1

# Exported with bars between the fields: 4 of the compounds above.
no. | mol | UUG fidelity | Rce1 inhib | Env fusion inh | eIF4H FP inh | PABP FP inh | MT1-MMP act inh | MT1-MMP act inh RFP | CSC inhib
2 | CCN(Cc1cc(=O)[nH]c2ccccc12)C(=O)c1ccc(C)cc1 | 3 | i | -5 | 0 | 0 | 0 | -1 | -13
17 | COc1cccc2sc3ccc(C#CC4(O)CCCCC4)cc3c(=O)c12 | -43 | + | -258 | -11 | 16 | 2 | -2 | -25
15 | NC(=O)CC(NC(=O)c1ccccc1)c1ccc(NCc2ccccn2)c([N+](=O)[O-])c1 (stereo unspecified) | -7 | i | 9 | 2 | 10 | 7 | -1 | -2
5 | CC1=C(/C=C/C(=O)O)C(C)(C)CCC1 | -11 | i | -65 | -9 | -5 | 6 | 5 | -10

# Next results follow.
25	CCOC(=O)C1=CCN(S(=O)(=O)c2ccc(C)cc2)C1c1ccc(Br)cc1 (stereo unspecified)
26	O=C(CN1C(=O)/C(=C/c2cccc(Br)c2)SC1=S)Nc1cccnc1
27	COC(=O)c1ccc(C(=O)OC)c(NC(=O)COC(=O)C23CC4CC(CC(O)(C4)C2)C3)c1
28	CC(NC(=O)c1ccc(N)cc1)c1ccccc1 (stereo unspecified)
29	COc1ccccc1NCCC(=O)OCC(=O)Nc1ccccc1F
30	O=C(N/N=C/c1c(Cl)cccc1Cl)c1ccccc1F
31	O=C(NNC(=O)C1CCCO1)c1ccc(Br)cc1 (stereo unspecified)
32	S=C1NCCNC(=S)NCCOCCOCCOCCN1

Assay by compound	25	26	27	28	29	30	31	32
UUG fidelity	-4	1	-6	-8	-13	nt	nt	nt
Rce1 inhib	nt	i	i	i	nt	i	i	i
Env fusion inh	0	-1	nt	-3	-9	nt	3	1
eIF4H FP inh	nt	-3	-7	-6	nt	-10	1	-1
PABP FP inh	nt	-6	8	1	nt	15	-2	39
MT1-MMP act inh	7	3	-2	3	nt	0	3	-1
MT1-MMP act inh RFP	2	8	-1	4	nt	2	4	4
CSC inhib	nt	13	6	29	0	11	31	5

33	O=C(COC(=O)CNC(=O)C1CCCCC1)Nc1ccc2c(c1)OCCO2
34	Cc1c(C(=O)N(Cc2ccc(N(C)C)cc2)C2CCS(=O)(=O)C2)oc2ccccc12 (stereo unspecified)
35	CCN(CC)S(=O)(=O)c1ccc(-c2nnc(SCC(=O)Nc3ccc(OC)c(OC)c3)o2)cc1
36	O=C(Nn1cnnc1)c1cc2c(s1)CCCCC2
37	Cc1nnc(SCc2cc([N+](=O)[O-])cc3c2OCOC3)n(N)c1=O
38	COc1ccc(-c2noc3c2-c2nc(-c4ccccc4F)sc2CC3)cc1
39	COc1ccc(OCC(=O)Nc2ccc(N3CCOCC3)cc2)c([N+](=O)[O-])c1
40	Oc1ccc(-c2nnc(Nc3cccc(O)c3)c3ccccc23)cc1

Assay by compound	33	34	35	36	37	38	39	40
UUG fidelity	-18	nt	-21	-14	nt	-16	nt	5
Rce1 inhib	i	i	i	nt	i	i	i	i
Env fusion inh	6	13	41	-7	10	-37	0	-21
eIF4H FP inh	-3	0	7	-1	-1	-4	7	-9
PABP FP inh	9	2	-1	1	-7	0	0	-6
MT1-MMP act inh	-1	-2	-4	1	-3	-2	3	4
MT1-MMP act inh RFP	-1	-3	0	1	0	1	1	2
CSC inhib	-5	-2	-8	-11	-4	65	nt	-3

# Pulled by compound from above (5):
33	O=C(COC(=O)CNC(=O)C1CCCCC1)Nc1ccc2c(c1)OCCO2
35	CCN(CC)S(=O)(=O)c1ccc(-c2nnc(SCC(=O)Nc3ccc(OC)c(OC)c3)o2)cc1
38	COc1ccc(-c2noc3c2-c2nc(-c4ccccc4F)sc2CC3)cc1
39	COc1ccc(OCC(=O)Nc2ccc(N3CCOCC3)cc2)c([N+](=O)[O-])c1
37	Cc1nnc(SCc2cc([N+](=O)[O-])cc3c2OCOC3)n(N)c1=O

Assay by compound	33	35	38	39	37
UUG fidelity	-18	-21	-16	nt	nt
Rce1 inhib	i	i	i	i	i
Env fusion inh	6	41	-37	0	10
eIF4H FP inh	-3	7	-4	7	-1
PABP FP inh	9	-1	0	0	-7
MT1-MMP act inh	-1	-4	-2	3	-3
MT1-MMP act inh RFP	-1	0	1	1	0
CSC inhib	-5	-8	65	nt	-4

# Following part
41	Cc1ccc2nc(SCC(=O)N3CC(C)OC(C)C3)nc(=O)n2c1 (stereo unspecified)
42	Cc1ccc(C(O)P(=O)(OC2CCCCC2)OC2CCCCC2)cc1 (stereo unspecified)
43	COc1cccc(C2(O)CCN(C(=O)c3cccs3)CC2)c1
44	CSCCC(NC(=O)c1ccccc1)C(=O)OCC(=O)NCc1ccco1 (stereo unspecified)
45	CCOc1ccc(/C=N\NC(=O)CC(=O)NCCc2ccccc2)cc1
46	c1ccc(-c2nnc(OCCN3CCOCC3)c3ccccc23)cc1
47	C[C@@H]1CN([C@H](C)CO)C(=O)CCCn2nncc2CO[C@H]1CN(C)S(C)(=O)=O
48	CCOc1ccccc1OCCNC1CCCC1

Assay by compound	41	42	43	44	45	46	47	48
UUG fidelity	7	-3	-11	-19	4	-12	-14&-6	nt
Rce1 inhib	i	i	i	nt	i	i	nt	i
Env fusion inh	-4	-60	1	-152	7	-31	-18	-12
eIF4H FP inh	nt	14	2	nt	-8	5	nt	2
PABP FP inh	nt	4	-6	nt	-8	4	nt	8
MT1-MMP act inh	-2	7	4	-2	-2	3	2	-5
MT1-MMP act inh RFP	1	4	0	4	7	0	2	2
CSC inhib	-3	-6	-4	-6	-7	1	nt	-8

49	O=[N+]([O-])c1cccc(C2(O)COc3ccccc3O2)c1 (stereo unspecified)
50	CCOC(=O)c1ccc(NC(=S)NC(=O)C2CCCC2)cc1
51	Cc1ccc(-n2ncc(-c3nn[nH]n3)c2N)cc1
52	COc1cc(NC(=O)C2CCCCC2)c(OC)cc1NC(=O)c1ccco1
53	Cc1cccc(Cn2c(CN3CCN(Cc4ccccc4)CC3)nc3c2c(=O)[nH]c(=O)n3C)c1
54	O=C(C[C@H]1C(=O)N(C2CCCCC2)C[C@@H]1Cc1ccccc1)Nc1ccccc1
55	Cc1cccc2cc(COC(=O)C3CCCCC3)c(=O)[nH]c12
56	C=CCNc1nc(NCCOC)c2sc(-c3ccccc3)cc2n1

Assay by compound	49	50	51	52	53	54	55	56
UUG fidelity	-8	-29	-11	nt	-2	8	-31	-22
Rce1 inhib	i	i	i	nt	i	i	i	nt
Env fusion inh	-6	-6	-6	13	-10	13	nt	-38
eIF4H FP inh	-12	-12	-8	0	1	-5	8	nt
PABP FP inh	1	-4	1	0	-9	-6	-5	nt
MT1-MMP act inh	5	-5	4	0	-4	-3	0	10
MT1-MMP act inh RFP	1	-7	4	1	1	-3	2	-4
CSC inhib	-3	-7	-2	-16	14	-4	-1	nt

57	COC(=O)c1ccc(NC(=O)c2cc[n+]([O-])cc2)cc1
58	CCN(CC)CCCNC(=S)N(Cc1cccs1)Cc1cc2cc3c(cc2[nH]c1=O)OCCO3
59	CC1(C(=O)Nc2cccc(Oc3ccccc3)c2)Cc2c(-c3ccccc3)ccnc2O1 (stereo unspecified)
60	CCOC(=O)c1ccc(-n2ccnc2)c(NC(=O)c2cccc(Br)c2)c1
61	CCCCNC(=O)NC1(C(F)(F)F)Oc2ccccc2O1
62	COc1ccc(NC(=O)[C@@H]2O[C@H](CO)[C@H](O)[C@H](O)[C@H]2O)cc1F
63	CCOC(=O)c1c(NC(=O)CSc2cccc[n+]2[O-])sc(C(=O)Nc2ccccc2)c1C
64	Cc1ccc(S(=O)(=O)N2CCN(C(=O)c3ccc(N4CCCCC4)c([N+](=O)[O-])c3)CC2)cc1
65	CCOc1ccc(/C=C2\SC(=S)N(C)C2=O)cc1OC

Assay by compound	57	58	59	60	61	62	63	64	65
UUG fidelity	-21	6	-32	-20	nt	-3	nt	3	-7
Rce1 inhib	i	i	nt	i	i	nt	i	i	i
Env fusion inh	-15	2	-12	0	nt	-6	20	-201	-6
eIF4H FP inh	-11	-2	nt	-13	-4	nt	0	-14	2
PABP FP inh	18	-8	nt	6	3	nt	-10	-6	-1
MT1-MMP act inh	-2	-7	-4	-1	0	3	-3	0	4
MT1-MMP act inh RFP	-1	-2	-4	-1	-12	2	-4	-7	-2
CSC inhib	-9	-5	nt	-2	-8	nt	nt	-5	10

# From PubChem
